Screens from PubChem BioAssay.
Rango complex inh: prevents formation of the Rango-importin beta complex. Potency, µM (doses to about 92.2 µM), for the others: at the top dose inhibition of complex formation. Rango CFP/YFP FRET sensor + importin beta, 45 min. Q14974. hit rate 0.031% among 340,000. AID 540263; active = rising FRET ratio curve, often small or poorly fitted; inconclusive = mostly compound fluorescence or quenching in the first reads; inactive = flat curves in all reads;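 further: potency means the concentration at half of the fitted maximal effect; 0% = DMSO wells and 100% = buffer wells lacking importin beta; nearly all actives have a fitted effect of over 15% in size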
Target sequence (Q14974 whole entry, looked up): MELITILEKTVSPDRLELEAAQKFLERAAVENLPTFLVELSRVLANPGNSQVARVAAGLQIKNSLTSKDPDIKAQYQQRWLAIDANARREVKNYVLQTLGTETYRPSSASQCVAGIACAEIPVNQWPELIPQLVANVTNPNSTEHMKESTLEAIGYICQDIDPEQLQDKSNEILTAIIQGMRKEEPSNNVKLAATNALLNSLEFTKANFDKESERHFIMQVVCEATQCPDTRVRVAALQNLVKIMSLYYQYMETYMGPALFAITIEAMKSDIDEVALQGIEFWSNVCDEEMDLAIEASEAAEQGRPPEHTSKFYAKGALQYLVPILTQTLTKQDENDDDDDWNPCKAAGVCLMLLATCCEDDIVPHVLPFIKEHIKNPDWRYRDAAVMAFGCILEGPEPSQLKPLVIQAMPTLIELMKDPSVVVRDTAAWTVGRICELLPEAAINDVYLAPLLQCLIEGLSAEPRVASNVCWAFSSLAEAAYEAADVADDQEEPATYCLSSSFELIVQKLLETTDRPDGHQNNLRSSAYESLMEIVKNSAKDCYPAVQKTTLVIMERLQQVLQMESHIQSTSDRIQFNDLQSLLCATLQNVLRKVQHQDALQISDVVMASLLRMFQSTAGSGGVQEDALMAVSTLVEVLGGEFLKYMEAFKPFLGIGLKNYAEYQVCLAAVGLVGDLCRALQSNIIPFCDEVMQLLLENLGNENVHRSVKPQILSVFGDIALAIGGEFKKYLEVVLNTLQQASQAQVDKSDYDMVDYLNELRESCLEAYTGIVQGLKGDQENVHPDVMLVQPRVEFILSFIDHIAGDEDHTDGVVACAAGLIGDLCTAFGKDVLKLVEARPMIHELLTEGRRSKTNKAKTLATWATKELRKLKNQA
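FRET biosensor Rango (snurportin 1 IBB between N-terminal EYFP and C-terminal Cerulean), 50 nM in PBS/1 mM DTT/0.02% Tween-20/0.1% BSA, preincubated 5 min RT with compound; 0.125 microM importin beta added, 45 min RT, CFP/YFP FRET ratio read.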
miR-21 FLuc: raises the signal of a miR-21 reporter | Potency, µM (highest dose often 38.3 µM), for the others: top-dose reporter change, positive = more light | 340,000 tested, under 10 active | AID 2288 | HeLa miR-21 FLuc reporter, luciferase, 48 h; active = well fitted rising curve with a large enough effect; inconclusive = small, poorly fitted or top-dose-only effect; inactive = no such curve, though single readings can be large or run the other way;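 further: % of control where 0% means no effect; miR-21 action dims this reporter so a rising signal means less miR-21 action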
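HeLa cells stably expressing CMV-driven firefly luciferase with a downstream miR-21 binding sequence, endogenously expressing miR-21, were treated with titrations (up to about 40uM final) for 48 hours at 37 degree Celsius. Luciferase luminescence was read after lysis.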
GLA inh pH 4.5: alpha-galactosidase A (human) inhibition, pH 4.5 | activity change, negative = inhibition, % at 105 µM | purified enzyme, 4-MU-alpha-Gal fluorescence, pH 4.5 | 230,000 tested, under 10 active | P06280 | AID 1467; inconclusive = small, poorly fitted or top-dose-only inhibition, or a rising curve; inactive = flat fitted curve, though single readings scatter; no compound was filed as active;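 further: 0% = full activity with enzyme and -100% = basal without enzyme; dose as in the result columns while the protocol names 77 µM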
Rango dissoc inh: prevents RanGTP from dissociating the Rango-importin beta complex | hit rate 0.071% among 340,000 | Biochemical FRET Rango-importin beta, RanGTP-induced dissociation | O95149+P62826 | AID 540253 | Potency, µM (titrated, usually from 46.1 µM), for inactives: at the top dose activity change, negative = inhibition; active means falling FRET ratio curve, often poorly fitted, with flat reads before Ran was added; inconclusive means other falling curves, or compound fluorescence or quenching; inactive means flat or rising ratio curve;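 further: potency means the concentration at half of the fitted maximal effect; % of control where 0% means no effect; nearly all actives have a fitted effect of over 45% in size; -100% = wells without RanGTP and RCC1; the record marks most hits as doubtful in a second field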
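Two FRET readings bracket the reaction: one 5 min after compound meets Rango–importin beta, another 45 min after RanGTP-RCC1 (0.6 uM Ran, 0.2 uM RCC1, 2 mM GTP) is added. Only the second defines inhibition.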
* marks the source's active call; other numbers are inactive results; ? = inconclusive; nt = not tested or not shown; & = joins results of further samples.

Structure | miR-21 FLuc | GLA inh pH 4.5 | Rango dissoc inh | Rango complex inh
Cc1ccc(/C=C/C(=O)Nc2ncc(C)s2)o1 | -63% | -5 | -14% | ?
COCCNC(=O)/C(C#N)=C/c1cccc(OCc2ccccc2)c1 | -14% | -17 | -2% | -0.6%
COc1cc([N+](=O)[O-])ccc1NC(=O)NCCCN1CCCC1=O | 1% | nt | 1% | -2.3%
O=C(COC(=O)c1ccccc1O)Nc1ccc(S(=O)(=O)N2CCCCC2)cc1 | 0% | -9 | 7% | 3.7%
Cc1ccc(NC(=O)c2ccc3c(c2)C(=O)N(Cc2cccnc2)C3=O)c(C)c1 | -2% | 6 | 8% | -3.8%
O=C(NCc1ccco1)c1csc(Nc2ccccc2Cl)n1 | -22% | -5 | 6% | 1.1%
CC1Cc2ccccc2N1C(=O)CSc1nncn1C (stereo not given) | -1% | 5 | 10% | ?
COc1cc(/C=C/C(=O)N2c3ccccc3Sc3ccc(C(F)(F)F)cc32)cc(OC)c1OC | -5% | -2 | 2% | -1.1%
Cc1ccc(N)c(C(=O)CCCCC(=O)O)c1 | 2% | 2 | ? | ?
Cc1ccc(C)c(NC(=O)C(Sc2nncn2C)c2ccccc2)c1 (stereo not given) | -4% | 6 | -8% | -4.6%
CCCS(=O)(=O)N1CCCC(C(=O)NCC(OC)OC)C1 (stereo not given) | 0% | 0 | 4% | 2.6%
CN(C)/C=C(\C#N)C(=O)N/N=C/c1ccc(Cl)cc1 | -9% | 1 | 21% | 1.1%
Cc1nnc(SCC(=O)N2CCN(S(=O)(=O)c3ccccc3)CC2)[nH]c1=O | 1% | 7 | 15% | 1.4%
Cc1ccc(-c2nc(CSCC(=O)NCCCN3CCOCC3)c(C)o2)cc1 | 0% | -5 | 1% | 0.0%
O=C(COC(=O)/C=C/c1cc(Br)ccc1F)NC1CC1 | nt | nt | 1% | 0.1%
CC(=O)Oc1c(C(=O)c2nnc(C)o2)c(=O)n(Cc2ccccc2)c2ccccc12 | 2% | -1 | -4% | -2.2%
CCOc1cc(CN2CCSCC2)ccc1O | -1% | 1 | 0% | 0.9%
COc1cccc(CSc2nc(N)cc(N)n2)c1 | -11% | nt | -3% | ?
O=C1CC(C(=O)N2CCOCC2)C2(CCCCC2)O1 (stereo not given) | 1% | 2 | 0% | 2.6%
COc1ccc(Cn2c(=O)c3[nH]cnc3n(-c3ccc(C)cc3)c2=O)cc1 | 15% | 10 | -2% | -3.6%
O=C(Nc1ccc(F)cc1)c1ccc(COc2ccccc2)cc1 | -6% | 1 | 2% | -3.8%
COC(=O)c1c(=O)n(O)c2ccc(OC)cc2[n+]1[O-] | 1% | -6 | ? | ?
CCn1c(CSc2nc3ccccc3[nH]2)n[nH]c1=S | -10% | -6 | -13% | 1.0%
Cn1c(CSCc2ccc(Cl)c(Cl)c2)nnc1SCC(=O)Nc1nccs1 | -1% | -2 | -8% | -3.8%
COC(=O)C1=C(C)NC2=C(C(=O)CCC2)C1c1cn(Cc2ccc(Cl)cc2Cl)nc1-c1ccccc1 (stereo not given) | 1% | 8 | ? | ?
C[C@H](CO)N1C[C@H](C)[C@@H](CN(C)S(C)(=O)=O)Oc2ccc(NC(=O)CCC(F)(F)F)cc2C1=O | nt | nt | 16% | -1.9%
COC(=O)C1CCN(C(=O)Cc2ccc(OC)c(OC)c2)CC1 | 1% | -6 | 18% | -0.6%
C=CCOc1ccccc1/C=c1\sc2nc(=O)c(C)nn2c1=O | -7% | 8 | -11% | -1.3%
Cc1nc2ccccc2c2oc(C(=O)NCC3COc4ccccc4O3)cc12 (stereo not given) | 23% | -12 | 0% | -0.1%
OC(c1ccc(F)cc1)C(CN1CCOCC1)c1ccccc1 (stereo not given) | 2% | nt | 10% | -2.3%
O=C(CCN1CCN2CCCC2C1)N1c2ccccc2Sc2ccc(Cl)cc21 (stereo not given) | 0% | nt | 8% | 3.3%
Cc1ccc(C)c(C(=O)COC(=O)CN2C(=O)C3C4CCC(C4)C3C2=O)c1 (stereo not given) | -1% | nt | 3% | 9.9%
CCC(C)NCCOc1cc(C)cc(C)c1C (stereo not given) | -6% | 14 | -8% | ?
CCCCCc1nnc(NC(=O)CS(=O)(=O)Cc2ccccc2)s1 | -1% | -1 | 15% | 2.5%
O=C(NCCCN1CCOCC1)c1ccc(-c2ccc(Cl)cc2)o1 | -22% | 6 | 2% | -0.7%
O=C(NCc1ccco1)C(Cc1ccccc1)N1C(=O)c2ccccc2C1=O (stereo not given) | -4% | -6 | 20% | -5.1%
c1ccc(-c2nnc3sc(CN4CCC5(CC4)OCCO5)cn23)cc1 | -8% | -13 | -3% | -2.4%
Cc1ccc(Cn2nc(-c3ccccc3)nc2-c2ccccc2)cc1 | -59% | 2 | 17% | -0.4%
Nc1nonc1NN=C1CCCCC1 | -17% | 1 | 40% | -0.9%
CCn1c(OC)nc2c1c(=O)n(C)c(=O)n2C | 3% | 8 | 2% | 3.5%
CCN(CC)C(=O)c1ccc(COc2ccccc2Cl)cc1 | -39% | -4 | 12% | 1.0%
O=C(NC(=S)N1CCCC1)c1ccccc1 | -5% | nt | -9% | -1.8%
COc1ccc(C(=O)C2CCCN(C(=O)c3noc4c3CCCC4)C2)cc1F (stereo not given) | -1% | -1 | 7% | -1.2%
Clc1ccccc1-c1nnc(-c2ccccc2Cl)o1 | -93% | 2 | 1% | 1.7%
CCOC(=O)C1=CN(Cc2cccc(F)c2)S(=O)(=O)N(CC)C1c1ccc(Br)cc1F (stereo not given) | nt | nt | 14% | 2.0%
CCC(C)NC(=O)C1CCN(S(=O)(=O)c2ccc3c(c2)CC(C)N3C(C)=O)CC1 (stereo not given) | 0% | nt | 24% | -0.3%
CN(C)S(=O)(=O)c1ccc(Cl)c(C(=O)NC2=NCCS2)c1 | -2% | nt | 21% | 2.9%
CCOC(=O)c1c(NC(=O)CCN2CCOCC2)sc(C)c1-c1ccccc1 | 22% | -2 | 1% | 4.7%
O=C(NS(=O)(=O)c1ccccc1)c1cccc(Br)c1 | -8% | nt | 3% | 5.2%
Nc1ccc(CNC(=O)OCC2c3ccccc3-c3ccccc32)cc1 | nt | nt | -3% | -0.1%

Fetched one by one from the entries so far (2):
Structure | miR-21 FLuc | GLA inh pH 4.5 | Rango dissoc inh | Rango complex inh
O=C(NS(=O)(=O)c1ccccc1)c1cccc(Br)c1 | -8% | nt | 3% | 5.2%
CCOC(=O)C1=CN(Cc2cccc(F)c2)S(=O)(=O)N(CC)C1c1ccc(Br)cc1F (stereo not given) | nt | nt | 14% | 2.0%

Following part.
Structure | miR-21 FLuc | GLA inh pH 4.5 | Rango dissoc inh | Rango complex inh
C/C(=N\Nc1ccccc1)c1cccs1 | nt | nt | -12% | ?
O=C(C=C1CCN(c2ncc(C(F)(F)F)cc2Cl)CC1)NNC(=O)Nc1ccc(Cl)cc1 | -3% | 10 | -2% | 2.5%
COc1ccc2oc(C(=O)OCC(=O)Nc3ccc(OC)c(S(N)(=O)=O)c3)c(C)c2c1 | nt | nt | -10% | -0.2%
CSc1nc(=S)c2[nH]c(=S)[nH]c2[nH]1 | 0% | -4 | 13% | 1.5%
Cc1cnc(NC(=O)c2ccc3c(c2)C(=O)N(Cc2cccnc2)C3=O)s1 | -2% | nt | 1% | -0.3%
COCCn1c(=O)[nH]c2cc(C(=O)NCCc3ccc(S(N)(=O)=O)cc3)ccc2c1=O | 6% | 11 | -19% | -0.8%
COc1ccc(S(=O)(=O)N2CCCCC2)cc1Br | -11% | -2 | -5% | -0.2%
CC(Sc1nc2ccccc2s1)C(=O)Nc1ccc2c(c1)OCO2 (stereo not given) | -17% | 2 | 2% | -0.6%
O=C(CN1CCN(CC(=O)Nc2cccc(F)c2)CC1)Nc1ccc(-c2ccccc2)cc1 | 3% | nt | 9% | -4.2%
CCOc1ccccc1NC(=O)Nc1ccccn1 | -4% | 2 | 0% | -2.7%
CCCNC(=O)c1nc(C)n(-c2ccc([N+](=O)[O-])cc2)n1 | -2% | -7 | -11% | 1.8%
Cc1ccc(OCc2cc(C(=O)N(C)CCc3ccccn3)no2)cn1 | 5% | nt | -16% | -3.8%
O=C(CN(Cc1ccccc1F)S(=O)(=O)c1ccc(Cl)cc1)NCCC1=CCCCC1 | -2% | 6 | -11% | -1.2%
CN(CC(=O)Nc1ccc(F)c(Cl)c1)S(=O)(=O)c1ccc2c(c1)n(C)c(=O)c(=O)n2C | 2% | nt | 20% | -0.9%
Cc1cc(NC(=O)CSCC(=O)Nc2cc(C(F)(F)F)ccc2N2CCCCC2)no1 | nt | nt | -17% | ?
CCc1nnc(NS(=O)(=O)c2ccc(NC(=O)c3ccc(Cl)cc3)cc2)s1 | -1% | -5 | 8% | 3.5%
OC(COc1ccc2c(c1)OCO2)CN1CCN(c2ccc(F)cc2)CC1 (stereo not given) | -2% | 1 | -6% | -1.8%
COc1cc(OC)cc(C(=O)NC(C(=O)NCc2ccccn2)C(C)C)c1 (stereo not given) | nt | nt | 14% | 0.6%
Cc1ccccc1NC(=O)c1cnn(-c2ccccc2)c1C | -41% | nt | 1% | 0.9%
N=C1/C(=C/c2ccc(Br)o2)C(=O)N=C2SC(CC(=O)N3CCCC3)=NN12 | 0% | nt | ? | ?
O=C(c1ccc(OC2CCN(CCc3ccccc3)CC2)cc1)N1CCCC1 | -9% | nt | 0% | -0.6%
Fc1ccc(-c2nnc3sc(C4COc5ccccc5O4)nn23)cc1 (stereo not given) | -15% | 2 | 12% | 4.3%
O=C(Cc1cccc2ccccc12)N/N=C/C=C/c1cccc([N+](=O)[O-])c1 | -3% | 1 | -3% | -5.4%
Cc1[nH]c2ccccc2c1CCN(Cc1cccnc1)C(=S)Nc1cccc(F)c1 | 25% | -6 | -19% | 2.2%
COc1ccc(C23NCCN2C(=O)c2ccccc23)cc1 (stereo not given) | -3% | nt | 22% | 3.2%
C=CCN1c2ccccc2[C@]23C[C@@H](C(=O)OC)N(C(=O)c4cc(C)oc4C)C2=NC(C(=O)OC)=C(C(=O)OC)[C@H]13 | ? | -11&-6 | 4% | 1.3%
Cc1cccc(-n2ncc3c(Nc4ccc(F)cc4)ncnc32)c1 | -37% | -5 | 1% | ?
CC(C)C1N(C(N)=S)N=CC1(C)C (stereo not given) | -2% | 5 | 0% | 0.8%
Cc1ccc(OCc2cc(C(=O)NCc3cnn(-c4cccc(F)c4)c3)no2)cn1 | 1% | nt | -7% | 0.8%
Cc1ccccc1CS(=O)(=O)c1ncc(Cl)c(C(=O)Nc2ccc(F)cc2)n1 | ? | nt | 2% | -1.2%
Cc1cn(S(=O)(=O)c2ccc(Cl)cc2)c(C)n1 | -1% | 9 | 5% | -0.2%
O=C(Nc1ccc(C(=O)O)cc1)/C(=C\c1ccc2c(c1)OCO2)NC(=O)c1ccc(Br)o1 | -1% | -3 | 6% | 4.3%
CC(=O)N(C)c1nc(-c2ccc(Cl)cc2)cs1 | -27% | 9 | -10% | -2.7%
Cc1c(CN2CCC(n3nccc3NC(=O)CCc3ccccc3)CC2)cnn1C | 0% | nt | -16% | 1.0%

An excerpt from above in order of count of non-hydrogen atoms, largest number first:
Structure | miR-21 FLuc | GLA inh pH 4.5 | Rango dissoc inh | Rango complex inh
COCCn1c(=O)[nH]c2cc(C(=O)NCCc3ccc(S(N)(=O)=O)cc3)ccc2c1=O | 6% | 11 | -19% | -0.8%
Cc1ccc(-c2nc(CSCC(=O)NCCCN3CCOCC3)c(C)o2)cc1 | 0% | -5 | 1% | 0.0%
CCCNC(=O)c1nc(C)n(-c2ccc([N+](=O)[O-])cc2)n1 | -2% | -7 | -11% | 1.8%
Cc1ccc(N)c(C(=O)CCCCC(=O)O)c1 | 2% | 2 | ? | ?

Some of the compounds tested; rates above refer to the full screens.
